# Rango complex inh = qHTS Assay for Inhibitors of Rango (Ran-regulated importin-beta cargo) - Importin beta complex formation | Rango CFP/YFP FRET sensor + importin beta, 45 min | Potency, µM (doses to about 92.2 µM), inactives show top-dose inhibition of complex formation | Importin subunit beta-1 (Homo sapiens), Q14974 | 340,000 tested, 0.031% active | AID 540263, 2011; active = rising FRET ratio curve, often small or poorly fitted; inconclusive = mostly compound fluorescence or quenching in the first reads; inactive = flat curves in all reads;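 further: potency means the concentration at half of the fitted maximal effect; 0% = DMSO wells and 100% = buffer wells lacking importin beta; nearly all actives have a fitted effect of over 15% in size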
# Target sequence (Q14974 whole entry, looked up): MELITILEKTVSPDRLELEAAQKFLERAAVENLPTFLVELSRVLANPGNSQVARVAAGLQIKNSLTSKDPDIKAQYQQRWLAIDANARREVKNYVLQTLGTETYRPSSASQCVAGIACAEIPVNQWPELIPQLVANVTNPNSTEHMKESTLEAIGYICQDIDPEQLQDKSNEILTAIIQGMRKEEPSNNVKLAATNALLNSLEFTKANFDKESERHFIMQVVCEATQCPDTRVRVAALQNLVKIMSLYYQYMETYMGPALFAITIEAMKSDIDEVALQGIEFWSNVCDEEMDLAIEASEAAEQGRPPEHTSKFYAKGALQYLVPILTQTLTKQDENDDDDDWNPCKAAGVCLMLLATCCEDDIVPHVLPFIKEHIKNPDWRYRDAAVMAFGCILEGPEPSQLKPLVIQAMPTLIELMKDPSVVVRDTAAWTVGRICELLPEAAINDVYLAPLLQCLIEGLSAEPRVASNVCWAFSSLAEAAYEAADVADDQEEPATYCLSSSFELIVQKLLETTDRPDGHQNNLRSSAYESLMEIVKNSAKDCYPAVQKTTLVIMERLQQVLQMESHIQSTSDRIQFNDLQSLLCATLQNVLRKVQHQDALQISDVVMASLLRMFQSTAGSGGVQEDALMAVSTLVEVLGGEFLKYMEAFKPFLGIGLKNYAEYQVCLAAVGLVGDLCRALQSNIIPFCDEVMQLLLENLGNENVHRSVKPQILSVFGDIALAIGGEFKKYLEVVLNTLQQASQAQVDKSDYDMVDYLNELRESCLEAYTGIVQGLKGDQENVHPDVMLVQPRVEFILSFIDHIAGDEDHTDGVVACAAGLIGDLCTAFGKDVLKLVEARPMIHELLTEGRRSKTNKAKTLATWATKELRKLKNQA
#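 Inhibition scored from the CFP 486 nm/YFP 530 nm FRET ratio 45 min after adding 0.125 microM importin beta to 50 nM Rango biosensor preincubated 5 min with compound (room temperature, PBS with DTT, Tween-20, BSA). No-importin wells as positive control.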
# miR-21 FLuc = qHTS Assay for Modulators of miRNAs and/orActivators of miR-21 | AID 2288, 2010 | 340,000 tested, under 10 active | HeLa miR-21 FLuc reporter, luciferase, 48 h | Potency, µM (doses to about 38.3 µM), for the others: at the highest dose reporter change, positive = more light; active = well fitted rising curve with a large enough effect; inconclusive = small, poorly fitted or top-dose-only effect; inactive = no such curve, though single readings can be large or run the other way;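 further: % of control where 0% means no effect; miR-21 action dims this reporter so a rising signal means less miR-21 action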
#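 Compounds were titrated across several concentrations (up to approximately 40 uM) and incubated 48 hours with HeLa miR-21-FLuc reporter cells (miR-21 target sequence downstream of FLuc, endogenous miR-21). Readout was firefly luciferase luminescence after lytic detection reagent.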
# GLA inh pH 4.5 = qHTS Assay for Inhibitors of Human alpha-Galactosidase at pH 4.5; Alpha-galactosidase A (Homo sapiens), P06280; activity change, negative = inhibition, % at 105 µM; purified enzyme, 4-MU-alpha-Gal fluorescence, pH 4.5; 230,000 tested, under 10 active; inconclusive = small, poorly fitted or top-dose-only inhibition, or a rising curve; inactive = flat fitted curve, though single readings scatter; no compound was filed as active;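 further: 0% = full activity with enzyme and -100% = basal without enzyme; dose as in the result columns while the protocol names 77 µM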
# Rango release inh = qHTS Assay for Inhibitors of RanGTP induced Rango (Ran-regulated importin-beta cargo) - Importin beta complex dissociation | Potency, µM (series often up to 46.1 µM), for the others: at the highest dose activity change, negative = inhibition | Snurportin-1 (Homo sapiens) + GTP-binding nuclear protein Ran (Homo sapiens) + Importin … | 340,000 tested, 0.071% active | Biochemical FRET Rango-importin beta, RanGTP-induced dissociation; active means falling FRET ratio curve, often poorly fitted, with flat reads before Ran was added; inconclusive means other falling curves, or compound fluorescence or quenching; inactive means flat or rising ratio curve;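 further: potency means the concentration at half of the fitted maximal effect; % of control where 0% means no effect; nearly all actives have a fitted effect of over 45% in size; -100% = wells without RanGTP and RCC1; the record marks most hits as doubtful in a second field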
#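 FRET read at 45 min, room temperature: inhibitors block the CFP/YFP signal rise when RanGTP (0.6 uM Ran, 2 mM GTP, 0.2 uM RCC1) frees Rango (0.1 uM) from importin beta (0.25 uM). Pre-read after 5 min compound exposure flags interference.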
# Active calls of the source: *; ? = inconclusive; / = not tested or not shown; & = joins results of further samples. An excerpt; count on the stated rates, not on these rows.
molecule	Rango complex inh	miR-21 FLuc	GLA inh pH 4.5	Rango release inh
C=CCN(c1ccccc1)S(=O)(=O)c1ccc2c(c1)N(C(C)=O)CCO2	3.3%	0%	/	5%
CN(C)S(=O)(=O)n1cc(/C=C(\NC(=O)c2ccccc2Cl)C(=O)NCCN2CCOCC2)c2ccccc21	?	9%	/	9%
NS(=O)(=O)c1cccc(NC(=O)c2cc3ccccc3o2)c1	?	-16%	-1	-9%
COc1ccc(S(=O)Cc2ccc(C(=O)NC3CC3)o2)cc1 (stereo unspecified)	0.0%	2%	/	-11%
COc1ccc(N2CCN(C(CNC(=O)c3ccco3)c3cccnc3)CC2)cc1 (stereo unspecified)	-1.2%	-4%	-8	12%
Cc1ccc(C)c(OCc2nc3ccccc3[nH]2)c1	0.0%	-56%	-3	-9%
COc1ccc(-n2c(Cc3cccn3C)nnc2SCC(=O)Nc2ccc(F)cc2F)cc1	-2.4%	-7%	-6	-5%
O=C(C[C@H]1C[C@H](C(=O)N2CCCCC2)[C@@]2(CCc3ccccc3)c3[nH]c4ccc(Cl)cc4c3CCN2C1=O)NCCc1ccccn1	-1.2%	/	/	30%
CCOCCCNC(=O)c1cn(CC)c2ccc(S(=O)(=O)N3CCCC3)cc2c1=O	-1.5%	0%	/	3%
COc1ccc2cc3cc(C(=O)NCCN4CCN(c5ccccc5F)CC4)oc3nc2c1	2.9%	-8%	29	6%
COc1ccc(CCNS(=O)(=O)c2ccc3c(c2)CCCC3)cc1OC	-0.6%	/	/	10%
C=CCCC(=O)Nc1nc(C)c(-c2csc(Nc3cc(Cl)ccc3OC)n2)s1	?	14%	2	0%
Cc1nn(C(C)c2n[nH]c(=S)n2-c2cccc(Cl)c2)c(C)c1[N+](=O)[O-] (stereo unspecified)	-2.1%	-16%	0	-20%
Cc1ccccc1NC(=O)N1c2ccccc2CC1C (stereo unspecified)	-1.4%	-35%	8	-19%
O=C1C=C(c2ccccc2)CCC1	-2.9%	0%	-15	-2%
CCOC(=O)C1=C(C)NC(=O)NC1c1ccco1 (stereo unspecified)	?	12%	0	-2%
CCCCSc1nnc2n(CCc3ccccc3)c(=O)c3c4c(sc3n12)COC(C)(C)C4	-2.4%	-5%	6	31%
CC1CCC(NC(=O)CCNS(=O)(=O)c2ccc3c(c2)CCC(=O)N3)CC1 (stereo unspecified)	-1.9%	-2%	/	-8%
COc1ccc(CCNc2ccncn2)cc1	-0.1%	0%	1	-3%
Cc1cccc(CC(=O)N2CCCC2)c1	-1.7%	-8%	/	20%
CCOCCCNC(=O)C(NC(=O)c1ccccc1O)c1ccc(C)cc1 (stereo unspecified)	1.9%	-5%	2	-9%
COc1ccc(C(=O)Nc2cc([N+](=O)[O-])ccc2N2CCCC2)cc1	-1.8%	-1%	-14	1%
CNC(=O)c1cccc(NC(=O)C(C)c2ccc3cc(OC)ccc3c2)c1 (stereo unspecified)	-3.5%	12%	/	-18%
Cc1ccc(S(=O)(=O)N/N=C/c2ccc(C(=O)O)cc2)cc1	-0.4%	-3%	2	-1%
COC(=O)CCC(=O)OC1(C)C(=O)C2=CN(C3CCCC3)C(c3ccc(OC)cc3)=CC2=C(Br)C1=O (stereo unspecified)	?	-4%	7&-5	9.2µM*
O=C1CN(C(=O)COC(=O)CCSc2ccccc2Cl)c2ccccc2N1	?	-6%	2	-3%
Cc1cc(C)c(CN2CCC(n3nccc3NC(=O)CCOc3ccccc3)CC2)cc1C	3.6%	8%	/	-2%
CC(NC(=O)COC(=O)C1CCN(S(=O)(=O)c2ccccc2C(F)(F)F)CC1)c1ccccc1 (stereo unspecified)	-5.6%	-2%	-6	23%
CCOc1ccc(/C=N/NC(=O)CN2CCSCC2)cc1	-0.8%	-9%	-11	18%
O=C(N/N=C/c1cc([N+](=O)[O-])ccc1O)C1C2CCCCC21 (stereo unspecified)	/	4%	3	/
COc1ccc(C(=O)/C=C(/C)N(C)C)cc1	0.1%	-6%	-4	-10%
Cc1ccc2nc(NC(=O)CNS(=O)(=O)c3ccc(Br)s3)sc2c1	1.6%	-11%	3	3%
O=C(Nc1cccc(-c2cn3cccnc3n2)c1)c1ccc2c(c1)OCO2	1.7%	-12%	12	-4%
Cc1cccc(C(=O)OCC(=O)NCC2CCCO2)c1O (stereo unspecified)	1.3%	/	/	?
O=C(/C=C/Nc1ccc(S(=O)(=O)Nc2ncccn2)cc1)c1cccs1	?	-32%	-3	?
O=C(O)c1ccc(CNCc2ccccc2Cl)cc1	-2.5%	-8%	6	-4%
CC(=O)Nc1cccc([N+](=O)[O-])c1	-0.2%	1%	2	5%
Cc1cc2nc(-c3ccc(NC(=O)c4cccnc4)cc3)oc2cc1C	-1.5%	-56%	5	6%
CC(C)CC1(C)NC(=O)N(CC(=O)Nc2ccc3c(c2)OCCO3)C1=O (stereo unspecified)	0.4%	/	/	7%
Cc1ccc(-n2ncc3c(NCCCN4CCOCC4)ncnc32)c(C)c1	-2.2%	-4%	-9	?

# Three of the compounds above, with each value named:
Cc1ccc(-n2ncc3c(NCCCN4CCOCC4)ncnc32)c(C)c1
  Rango complex inh = -2.2% | miR-21 FLuc = -4% | GLA inh pH 4.5 = -9 | Rango release inh = ?

CC(=O)Nc1cccc([N+](=O)[O-])c1
  Rango complex inh = -0.2% | miR-21 FLuc = 1% | GLA inh pH 4.5 = 2 | Rango release inh = 5%

O=C(/C=C/Nc1ccc(S(=O)(=O)Nc2ncccn2)cc1)c1cccs1
  Rango complex inh = ? | miR-21 FLuc = -32% | GLA inh pH 4.5 = -3 | Rango release inh = ?

# Look-ups from above.
# CCOc1ccc(/C=N/NC(=O)CN2CCSCC2)cc1 – Rango release inh = 18%
# O=C1CN(C(=O)COC(=O)CCSc2ccccc2Cl)c2ccccc2N1 – miR-21 FLuc = -6%
# O=C(N/N=C/c1cc([N+](=O)[O-])ccc1O)C1C2CCCCC21 (stereo unspecified) – miR-21 FLuc = 4%

# (cont.)
molecule	Rango complex inh	miR-21 FLuc	GLA inh pH 4.5	Rango release inh
COc1cc(/C=N/NC(N)=O)ccc1OC(=O)c1ccc(C)cc1	/	-3%	2	/
O=C1N=C(c2ccccc2)C(c2ccccc2)N1 (stereo unspecified)	-0.8%	-4%	0	16%
CCOc1ccc(CCNC(=O)c2cc3c(C)nccc3[nH]c2=O)cc1OCC	-1.7%	0%	-11	23%
Cn1c(=O)oc2cc(S(=O)(=O)CCC(=O)Nc3ccccc3)ccc21	-1.3%	-1%	/	8%
O=C(c1ccc2c(c1)OCO2)C1CCCN(Cc2ccc3nsnc3c2)C1 (stereo unspecified)	-0.7%	-1%	2	-9%
COc1ccc(-c2[nH]ncc2CNC(C)CCn2cccn2)c(F)c1 (stereo unspecified)	-1.3%	-3%	2	-3%
C=CCNC(=O)c1onc(CSc2cc(C)cc(C)c2)c1C(=O)O	2.2%	11%	4	7%
CCn1nc(C(=O)NC2=NCCS2)c2ccccc2c1=O	2.4%	0%	5	-4%
CCCCC(C(=O)NC1CCCC1)N(C(=O)c1snc(C(N)=O)c1N)c1ccc(F)cc1 (stereo unspecified)	?	-2%	/	-28%
O=C(C1CCCCN1S(=O)(=O)c1ccc(F)cc1)N1CCN(c2ccccc2F)CC1 (stereo unspecified)	?	-2%	-10	2%
Cc1cc(C)cc(NC(=O)C(=O)NCC2CCCO2)c1 (stereo unspecified)	-1.4%	-33%	5	12%
Cc1c(NC(=O)c2ccc(C(C)(C)C)cc2)cccc1[N+](=O)[O-]	0.0%	-48%	-8	-15%
COc1cccc(NC(=O)C2CCC(CNS(=O)(=O)c3ccc4c(c3)CC(C)N4C(C)=O)CC2)c1 (stereo unspecified)	1.3%	?	/	28%
CCN(CC)C(=O)NC1CC2CCCC(C1)N2Cc1ccccc1 (stereo unspecified)	-4.1%	-5%	-3	-2%
O=C(CSCc1ccccc1)Nc1cccc(F)c1	1.7%	-77%	-3	1%
CNc1ccc2c3c(cccc13)C(=O)N(C)C2=O	?	-15%	/	?
COc1ccc(NC(=O)CCSc2nnc(C)s2)cc1	0.9%	-6%	7	-9%
COc1ccc2[nH]c(=O)c(CN(CCCN(C)C)C(=O)Nc3ccc(F)cc3)cc2c1	0.3%	-8%	5	-10%
Cc1c(C)n(-c2ccc(Cl)cc2)c2ncnc(N)c12	0.6%	1%	/	15%
COc1ccc(N(CC(=O)NCc2ccco2)C(=O)CCC(=O)Nc2nccs2)c(OC)c1	1.1%	-3%	/	0%
COc1cc2cc(C[C@H](C)O)oc(=O)c2cc1OC	-2.1%	/	/	0%
O=C(NCCCN1CCCC1=O)c1cccc(S(=O)(=O)Nc2ccc(F)cc2)c1	0.9%	/	/	20%
Cc1cccc(NC(=O)Nc2ccc(F)cc2)n1	-6.1%	-43%&-36%	/	-4%
COc1ccccc1C(=O)NCc1nnc(SC(C)C(=O)Nc2nccs2)n1C (stereo unspecified)	0.8%	-1%	/	2%
O=C(CCc1ccccc1)OCC(=O)c1ccc(Br)cc1	1.1%	-6%	-2	-4%
O=S(=O)(c1ccc(F)cc1)N1CCC(N2CCCCCC2)CC1	-0.1%	-3%	-3	22%
COc1ccccc1N1CCN(C(=O)/C=C/c2ccc3c(c2)OCO3)CC1	11%	-2%	-1	-1%
CC(=O)Nc1c(Br)cc(N2C(=O)CCC2=O)cc1Br	-0.1%	-6%	2	1%
CCOCCCNC(=O)CN(c1cc([N+](=O)[O-])ccc1OC)S(C)(=O)=O	-1.2%	1%	3	-14%
O=C(CSc1ccc(-c2ccco2)nn1)NCc1ccccc1Cl	0.4%	-10%	7	-10%
COc1ccc(/C=N/N2C(C)CCCC2C)cc1OC (stereo unspecified)	-3.6%	-4%	/	-6%
Cc1ccc(NC(=O)CN2C(=O)NC3(CCc4ccccc43)C2=O)cc1S(=O)(=O)N1CCCCC1 (stereo unspecified)	-3.4%	/	/	-2%
Cc1cc(Nc2ccc3c(c2)OCCO3)c2cc(Cl)ccc2n1	0.5%	17%	-2	20%
C=CCOC(=O)COc1ccc2c(C)c(C)c(=O)oc2c1C	-1.5%	-5%	3	-2%
Cc1ccccc1NS(=O)(=O)c1ccc(C(=O)N2CC(C)OC(C)C2)cc1 (stereo unspecified)	0.3%	/	/	?
COc1ccc(C2=NN(C(N)=S)C(c3ccccc3)C2)cc1 (stereo unspecified)	3.3%	-24%	1	-12%
CCCCCc1ccc(-c2nnc(N)s2)cc1	-0.9%	-66%	-6	-2%
Nc1ccc(N2CCCCC2)c(S(=O)(=O)Nc2ccc(Cl)cc2)c1	0.2%	-3%	-7	25%
O=Nc1ccc(NOC(=O)c2ccc(Br)cc2)cc1	/	-1%	10	/
Cc1ccccc1OCCn1c(=O)sc2ccccc21	-0.3%	-31%	-14	0%
Cc1nnc(SCc2ccc(CC(=O)O)cc2)o1	7.4%	-1%	2	-4%
CCOc1ccc(NC(=O)CN(C)C(=O)c2cc(-c3cccs3)nn2-c2ccccc2)cc1OCC	-1.8%	/	/	11%
Cc1ccc(Cc2nnc3n(-c4ccccc4)nc(C(=O)c4ccccc4)n3c2=O)cc1	?	-5%	-11	-18%
COc1cc(C)c(NC(=O)COc2ccc3c(c2)CCC3)cc1OC	-0.7%	/	/	-6%
CCCCCCCCCCCCN1[C@@H](CC(=O)O)c2cc(F)ccc2S1(=O)=O	4.2%	/	/	-3%
Cc1ccc(C)c(S(=O)(=O)N2CCN(C(=O)Cc3ccc(S(=O)(=O)N4CCOCC4)s3)CC2)c1	1.7%	/	/	-7%
CCc1ccc(S(=O)(=O)N/N=C\c2cn(CC(N)=O)c3ccccc23)cc1	-3.1%	-5%	/	-6%

# From PubChem BioAssay
